# D2 potentiator = human D2 receptor positive allosteric modulation; 0.23% of 360,000 active; potentiation, % (test concentration not listed); P14416; DiscoveRx D2 beta-arrestin cells, luminescence, 90 min; 100% = 57 uM dopamine signal; active = potentiation of 50% or more; inconclusive = 30% to 50%; inactive = 30% or less;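 further: compound concentration not given in the record; tested on top of an EC20 dose of dopamine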
#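 D2 cells co-treated with compound plus 50 nM dopamine (EC20) for 90 min at 37 deg C to detect potentiation. Beta-arrestin recruitment was read as enzyme-fragment luminescence after 1 h at ambient temperature. Full response was set by 57 uM dopamine.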
# Sfp PPTase inh = blocks B. subtilis Sfp PPTase activity; Q9F4F7; Biochemical Sfp PPTase activity, qHTS; Potency, µM, for inactives: max response, negative = inhibition, most hits filed as inhibitors; 3.5% of 310,000 active; active means well fitted inhibition curve with a large enough effect; inconclusive means small, poorly fitted or top-dose-only effect, or another doubt; inactive means no such curve, though single readings can be large or run the other way;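 further: the enzyme is Sfp with the accession as filed and its product quenches rhodamine fluorescence; potency means the concentration at half of the fitted maximal effect; 0% = enzyme reaction without inhibitor and -100% = no enzyme wells; top concentration of the series not given in the record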
#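 Fluorescence-quenching assay: 15 nM Sfp-PPTase preincubated 15 min at room temperature with compound, then 5 uM rhodamine-CoA and 12.5 uM BHQ-2-labelled YbbR peptide added. Fluorescence (ex 525/em 598 nm) read at start and after 30 min; difference gives rate.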
# ClpP mod = qHTS Assay for Activators of ClpP; purified B. subtilis ClpP, FRET peptide cleavage, 20 min; Potency, µM (doses to about 57.5 µM), for the others: at the top dose activity change, negative = active; AID 651965, 2013; 1.9% of 340,000 active; active = well fitted falling curve with a large enough effect; inconclusive = small, poorly fitted or top-dose-only effect; inactive = no such curve, though single readings can be large or run the other way; further: potency means the concentration at half of the fitted maximal effect; the source files actives as falling curves though it sought activators and does not explain the sign; nearly all actives have a fitted effect of over 65% in size; many hits overshoot -100%
# Target sequence (P80244 whole entry, looked up): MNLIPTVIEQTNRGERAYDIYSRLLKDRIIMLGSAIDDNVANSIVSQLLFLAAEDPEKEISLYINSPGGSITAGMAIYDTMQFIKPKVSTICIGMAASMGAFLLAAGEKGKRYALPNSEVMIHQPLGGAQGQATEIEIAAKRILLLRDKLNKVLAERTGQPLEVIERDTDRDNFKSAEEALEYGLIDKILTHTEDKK
#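 FRET quenching reversal measured ClpP activation: 10 microg/mL B. subtilis ClpP at pH 8 with the FRET-FV decapeptide, read at 430 nm after 320 nm excitation. The 20-min minus 0-min signal was scaled between DMSO/no-enzyme wells and ADEP (5.8 microM final).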
# gsp antagonist = antagonizes gsp, the McCune-Albright syndrome mutation. gsp-mutant cells, cAMP HTRF, 30 min; control for the full effect not named in the record. Potency, µM (titrated, usually from 76.9 µM), inactives show at the top dose activity change, negative = inhibition, most hits filed as inhibitors. 0.4% of 340,000 active. AID 624288; active = falling curve of any shape with a large fitted effect; inconclusive = falling curve, mostly with a smaller effect; inactive = flat or rising curve; cell line not stated here;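 further: intracellular cAMP measured with PDE inhibitor Ro 20-1724 present during compound exposure; potency means the concentration at half of the fitted maximal effect; on the % scale 0 is the no-effect control and ±100 the full control effect; nearly all actives have a fitted effect of over 65% in size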
#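 Measurement of cellular cAMP by homogeneous time-resolved fluorescence following a 30 min compound exposure at 37C. The PDE inhibitor […] was present throughout; the assay buffer was DPBS with 0.05% BSA and 0.005% Tween 20.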
# Menin-MLL FL inh = displaces fluorescein MLL peptide from human menin; Fluorescence polarization, fluorescein-MLL peptide displacement from menin; FP activity change, % at 61.4 µM; 290,000 tested, under 10 active; AID 1766; inconclusive = falling polarisation curve, or a change in total fluorescence; inactive = total fluorescence flat and polarisation flat or rising; no compound was filed as active; the % refers to the polarisation; negative = inhibition;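 further: % of control where 0% means no effect; inhibitors lower the polarisation; unlabelled MLL peptide was the positive control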
# TRPV1 potentiator = potentiators of human vanilloid receptor 1 (TRPV1) | Q8NER1 | TRPV1-expressing cells, Fluo-8 calcium influx, capsaicin EC20 potentiation; host cell line not named in the record; control for the full effect not named in the record | potentiation, % at 8.33 µM | 0.02% of 320,000 active | AID 540277; active means potentiation above 80%; inconclusive means 30% to 80%; inactive means below 30%; further: 0% is about no effect
# Target sequence (Q8NER1 whole entry, looked up): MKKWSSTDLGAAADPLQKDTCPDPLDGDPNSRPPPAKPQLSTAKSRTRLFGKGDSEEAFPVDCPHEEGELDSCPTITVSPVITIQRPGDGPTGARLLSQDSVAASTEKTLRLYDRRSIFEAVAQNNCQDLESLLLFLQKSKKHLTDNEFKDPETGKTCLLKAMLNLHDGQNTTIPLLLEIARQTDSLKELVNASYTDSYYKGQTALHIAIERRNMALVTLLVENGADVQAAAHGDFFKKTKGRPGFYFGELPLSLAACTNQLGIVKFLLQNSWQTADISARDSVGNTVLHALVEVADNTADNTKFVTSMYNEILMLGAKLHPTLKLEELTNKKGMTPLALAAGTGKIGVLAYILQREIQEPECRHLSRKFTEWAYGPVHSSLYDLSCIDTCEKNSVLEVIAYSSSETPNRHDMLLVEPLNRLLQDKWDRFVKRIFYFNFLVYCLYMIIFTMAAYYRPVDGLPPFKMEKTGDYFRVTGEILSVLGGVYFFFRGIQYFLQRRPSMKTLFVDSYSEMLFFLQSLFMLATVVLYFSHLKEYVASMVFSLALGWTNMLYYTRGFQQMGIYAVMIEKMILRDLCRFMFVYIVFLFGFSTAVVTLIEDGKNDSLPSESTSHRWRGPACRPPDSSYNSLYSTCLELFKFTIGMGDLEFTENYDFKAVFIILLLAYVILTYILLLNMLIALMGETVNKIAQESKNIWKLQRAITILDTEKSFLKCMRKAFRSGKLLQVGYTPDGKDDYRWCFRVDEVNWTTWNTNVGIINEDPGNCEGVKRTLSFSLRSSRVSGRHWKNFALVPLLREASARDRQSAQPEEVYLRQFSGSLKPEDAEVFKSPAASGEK
#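 TRPV1-expressing cells were cultured overnight at 35.5C and loaded with Fluo-8 calcium dye for 40 to 90 min at room temperature. After a 10 s baseline, compound was added and calcium influx was read kinetically for 3 min (ex 480/em 520 nm).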
# gsp agonist = agonists of gsp mutant (McCune-Albright syndrome); gsp mutant cells, cAMP HTRF, 30 min; control for the full effect not named in the record; Potency, µM (titrated, usually from 76.9 µM), for the others: top-dose activation (cAMP increase), actives largely listed as activators; 0.13% of 340,000 active; active = well fitted activation curve with a large enough effect; inconclusive = small, poorly fitted or top-dose-only effect, or another doubt; inactive = no such curve, though single readings can be large or run the other way; cell line not stated here;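 further: phosphodiesterase inhibitor Ro 20-1724 added with compounds to block cAMP breakdown; potency means the concentration at half of the fitted maximal effect; nearly all actives have a fitted effect of over 60% in size; about a fifth of the inactives were tested at one dose only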
#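 Cells stably selected in G418 were plated at 2000/well, grown 16-24 hr, then given compounds in DMSO with the PDE inhibitor […] (300 uM solution added) for 30 min at 37C; cAMP was read by HTRF.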
# * hit, by the source's call; ? = inconclusive; nt = no result given; [ ] = remark or other dose.
entry	mol	gsp agonist	D2 potentiator	Sfp PPTase inh	TRPV1 potentiator	gsp antagonist	Menin-MLL FL inh	ClpP mod
1	Cc1ccc(C(=O)OCC(=O)NCc2ccc(Cl)cc2Cl)o1	-30%[inhibitor]	2	nt	-6	14%	nt	1.8%
2	O=C(CSc1nnc(CNC(=O)c2c(F)cccc2Cl)o1)Nc1ccc2c(c1)OCO2	-29%[15.4 µM]	3	13%	14	-20%	-4.2	nt
3	O=C1C=C(c2ccccc2)OC(c2ccccc2)O1 (stereo unspecified)	-5%[15.4 µM]	-1	13%	7	1%	4.7	0.8%
4	CCc1nn(-c2ccccc2)c(N)c1-c1ccc(OC)c(OC)c1	-2%	-6	-2%	-10	9%	2.0	?
5	COc1cc2c(C(=O)N3CCN(C)CC3)c(C)n(-c3ccccc3)c2cc1Br	?	4	4%	-26	2%	-1.4	1.2%
6	CC(=O)c1c(C(C)=O)c(C)n(-c2nc(-c3cccs3)c(C)s2)c1C	3%	-12	2%	29	-25%	4.2	0.2%
7	O=C(Nc1ccc(Cl)cc1C(F)(F)F)c1ccccc1	2%	12	-3%	4	5%	6.0	3.2%
8	CC(C)Cc1ccc(C(C)C(=N)N)cc1 (stereo unspecified)	-22%[15.4 µM]	-10	-6%	14	13%	3.0	nt
9	Cc1nc(C)c(C(=O)C2=C(O)C(=O)N(CCN3CCOCC3)C2c2cccs2)s1 (stereo unspecified)	0%	-11	-21%	?	4%	-1.7	0.4%
10	COc1ccc(S(=O)(=O)N2CCOCC2)cc1NC(=O)COC(=O)C1COc2ccccc2O1 (stereo unspecified)	19%	-27	-3%	6	-14%	0.4	1.5%
11	C[C@@H]1CN([C@H](C)CO)C(=O)c2cc(-c3ccccc3)cnc2O[C@@H]1CN(C)C(=O)C1CCOCC1	5%	-6	nt	nt	nt	nt	?
12	COc1ccccc1C(=O)NCC(=O)NNC(=O)C1COc2ccccc2O1 (stereo unspecified)	7%	-38	nt	5	8%	nt	-1.0%
13	Cc1ccc(NC(=O)C2CC(c3ccc(F)cc3)=NO2)cc1 (stereo unspecified)	50%	-5	9%	10	9%	-1.7	0.5%
14	Cc1ccc(Nc2c(F)c(F)c(F)c(F)c2C(=O)O)c(C)c1	4%[15.4 µM]	6	16%	10	-13%	-0.1	nt
15	Cc1ccccc1OCCNC(=O)/C=C/c1ccccc1	-39%[inhibitor]	-15	1%	-10	-4%	4.2	-12%
16	O=C(CSc1ccccn1)Nc1cccc(S(=O)(=O)N2CCCC2)c1	12%	-13	nt	-11	3%	nt	-0.8%
17	CC(C)c1nc(NCC2CCCO2)c(C#N)c2c1COC(C)(C)C2 (stereo unspecified)	?	27	7%	-16	-12%	-0.7	28µM*
18	Cn1cccc1C(=O)C(=O)Nc1ccccc1C(F)(F)F	0%	-2	11%	4	-2%	1.7	nt
19	COc1cccc(-c2c(NC(C)=O)n(C)c3ccccc3c2=O)c1	26%	-4	15%	3	4%	1.5	-17%
20	C/C(CC(=O)Nc1ccc2ccccc2c1)=N\NC(=O)c1cnccn1	-3%	-5	-19%	?	7%	5.0	0.3%
21	CC1Sc2ccc(S(=O)(=O)N3CCC(C(=O)NCc4ccco4)CC3)cc2NC1=O (stereo unspecified)	-1%	-6	19%	8	-3%	nt	-1.0%
22	Cc1ccc(Cl)cc1Nc1nc(-c2sc(NC(=O)c3ccco3)nc2C)cs1	7%	-19	8%	5	-11%	-3.0	-3.3%
23	Cc1cc(C)nc(N/N=C/c2ccccc2OCc2ccc([N+](=O)[O-])cc2)n1	11%[15.4 µM]	-6	-3%	-13	-11%	1.9	-0.5%
24	O=C(NC(=S)Nc1ccc(CN2CCOCC2)cc1)c1ccc(-c2ccc(Cl)cc2)o1	?	-2	0%	12	6%	3.3	13%
25	CN(Cc1cc(=O)n2ccsc2n1)Cc1nc2ccccc2c(=O)[nH]1	0%	4	4.5µM*	2	-1%	0.3	nt

# Screen by screen, quoted from above:
# Compounds 3–7 in Menin-MLL FL inh, in turn: 4.7, 2.0, -1.4, 4.2, 6.0
# Compounds 3–7 in TRPV1 potentiator, in turn: 7, -10, -26, 29, 4

# The listing continues:
entry	mol	gsp agonist	D2 potentiator	Sfp PPTase inh	TRPV1 potentiator	gsp antagonist	Menin-MLL FL inh	ClpP mod
26	COc1ccccc1NC(=O)c1cn(C)c(=O)c2cc(OC)c(OC)cc12	-14%	1	29%	-9	14%	1.4	3.1%
27	Cc1ccc(OCCn2nnc3ccccc32)cc1C	-41%[inhibitor]	3	-4%	3	15%	-4.2	nt
28	CN(C)S(=O)(=O)c1ccc(Cl)c(C(=O)OCC(=O)NC(=O)c2cccn2C)c1	?	-16	13%	0	-14%	2.0	6.5%
29	Cc1ccc(-c2csc(NC(=S)NC(=O)c3ccco3)n2)cc1	-49%[inhibitor]	-16	1%	0	1%	8.8	0.9%
30	COc1cc(/C=N/N(C)c2ccccc2)ccc1O	15%	-1	-9%	1	-8%	0.6	-1.3%
31	Nc1ccn([C@@H]2O[C@H](CNCc3ccc(OCC(=O)Nc4nccs4)cc3)[C@@H](O)[C@H]2O)c(=O)n1	1%	0	nt	nt	nt	nt	0.9%
32	Cc1cc(N2CCOCC2)nc2ccc(Cl)cc12	17%	4	4%	?	-8%	nt	nt
33	COc1ccccc1NC(=O)c1ccc(Br)o1	-28%	-39	6%	-2	-7%	-0.6	0.9%
34	CCCCOc1ccc(NC(=S)Nc2cc(C)nc(SCCCC)n2)cc1	5%	12	18%	-4	-3%	4.4	-2.4%
35	COc1ccc(/C(=C\Nc2ccc(C)c(C)c2)C(C)=O)cc1OC	5%[15.4 µM]	-6	4%	21	-1%	-0.6	nt
36	CCC(=O)N1CCc2cc(S(=O)(=O)N3CCN(c4cc(C)ccc4C)CC3)ccc21	7%	-4	8%	3	13%	nt	0.8%
37	CN1CCN(c2ncnc3c2c(-c2ccccc2)cn3-c2ccc(F)cc2)CC1	-7%[15.4 µM]	-23	-12%	-1	-7%	0.1	nt
38	CCOc1ccc(CCNC(=O)COC(=O)CCC(=O)c2cccs2)cc1OCC	-3%	-5	13%	1	7%	nt	-4.2%
39	Cc1ccc(C(=O)Nc2ncccc2C)o1	-1%	10	nt	nt	9%	nt	-2.8%
40	COc1cc2c(cc1NC(=S)Nc1cccc(C)c1)oc1ccccc12	3%	-7	-5%	5	-15%	-0.6	11µM*
41	CCC(=O)NC(=S)Nc1ccc(N2CCN(C(=O)c3ccc(Cl)cc3)CC2)cc1	11%	4	10%	4	?	4.0	nt
42	CCCCNC(=S)N1CCN(c2ccc(C(C)=O)cc2)CC1	4%	-11	15%	5	-19%	4.0	-13%
43	CC(NS(=O)(=O)c1ccc(Br)cc1)C(c1cccs1)N1CCN(C)CC1 (stereo unspecified)	-80%[inhibitor]	-11	5%	-18	14%	6.4	0.5%
44	CCN1CCN(c2oc(-c3ccc(OC)cc3)nc2C#N)CC1	-25%	-17	nt	nt	10%	nt	3.2µM*
45	Cc1cccc(CCNC(=O)c2oc3c(C)c(C)ccc3c2C)n1	-17%	-36	-4%	-11	-9%	-6.6	-13%
46	CCN(CC)C(=O)CSc1nc2ccccc2n1CC(=O)N1CCN(c2ccccc2OC)CC1	14%	2	17%	3	-13%	-1.7	0.2%
47	Cc1nn(C)c(C)c1NS(=O)(=O)c1cccc(Br)c1	4%	-23	nt	-2	-1%	nt	0.2%
48	O=C(COc1ccc(Cl)cc1Cl)NN1C(=O)C2C3C=CC([C@@H]2C1=O)C31CC1 (stereo partly specified)	-6%	-8	17%	8	0%	1.5	nt
49	CCOC(=O)C1=C(C)NC(C)=C(C(=O)OCC)C1c1cccc(C)n1	-21%	-10	6%	0	0%	-1.7	nt
50	C=Cn1cc[n+](CC(=O)c2ccc(Br)s2)c1	17%	-36	7%	-5	-1%	1.6	-11%
51	N#Cc1cc(C#N)c(N2CCN(c3ccccn3)CC2)nc1N	9%	-4	2%	-14	7%	?	14%
52	Cc1cc(NC(=O)CCC(=O)N(c2ccccc2)C(C(=O)NC2CCCC2)c2ccc(F)cc2)no1 (stereo unspecified)	14%[15.4 µM]	-6	12%	0	-1%	3.2	nt
53	O=C(Cn1c(CO)nc2ccccc21)Nc1cc(C(F)(F)F)ccc1N1CCOCC1	-18%	-4	0%	-6	3%	2.4	0.7%
54	COC(=O)Cc1coc2cc(OC)ccc12	-8%	-8	nt	-3	0%	nt	-6.5%
55	Cc1ccc2nc(SCCCCOc3ccccc3)[nH]c2c1	-4%	-33	16%	-4	40µM*	0.1	-0.8%
56	Cc1sc2ncnc(NCC(c3ccccc3)N(C)C)c2c1C (stereo unspecified)	16%	-13	3%	-3	3%	-2.7	nt
57	Cn1c(=O)c2c(nc(NCc3ccco3)n2Cc2ccccc2Cl)n(C)c1=O	18%	-11	12%	1	2%	0.2	-1.1%
58	C[C@H]1CN([C@@H](C)CO)C(=O)c2cccc(NC(=O)c3ccncc3)c2O[C@H]1CN(C)C(=O)Nc1ccccc1	-26%	0	nt	nt	3%	nt	-0.2%
59	c1cncc(C(c2nnnn2C2CCCC2)N2CCN(Cc3ccc4c(c3)OCO4)CC2)c1 (stereo unspecified)	-50%[inhibitor]	-5	2%	-4	3%	2.9	-0.4%
60	CCc1ccc(NC(=O)N2CCN(C(=O)C3CCCO3)CC2)cc1 (stereo unspecified)	-30%[inhibitor]	-1	7%	-1	11%	nt	2.1%
61	COc1ccccc1CCNC(=O)c1nccnc1C(=O)O	-1%[15.4 µM]	-5	16%	12	16%	-0.7	-0.8%
62	Cc1nonc1C(=O)N/N=C/c1ccc(O)cc1	5%[15.4 µM]	-11	-14%	13	2%	-1.0	?
63	COc1ccc(NC(=O)C2CCN(S(=O)(=O)c3cccc4nonc34)CC2)c(OC)c1	4%[15.4 µM]	-4	13%	3	0%	4.7	nt
64	COCCOC(=O)C1=C(C)NC(=O)NC1c1cccc(F)c1 (stereo unspecified)	-13%	-6	-6%	-9	-5%	7.6	nt
65	CC(C)c1cccc(C(C)C)c1NC(=O)CN1C(=O)NC2(CCCCCCC2)C1=O	12%	-5	nt	-2	13%	nt	0.0%
